Hsc70 ATP site: small molecules displacing fluorescent ligand from Hsc70 – biochemical, fluorescence polarization, primary screen (AID 568); 83,000 tested, under 10 active; displacement, % at 20 µM; hits with a dose series show IC50 in µM; Hsc70 fluorescence polarization, probe displacement; higher % means a stronger effect; strong numbers were not always called active;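 active = displacement above 50% without optical interference and an IC50 on retest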;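 also: ATPase domain with a fluorescein-tagged ATP probe; 0% = vehicle and 100% = excess ADP; read after one hour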
WNV protease inh: WNV NS2B-NS3 proteinase inhibition. AID 577. z-score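 (tested at a level between 10 and 100 µM)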. WNV NS2B-NS3 protease, fluorogenic substrate Ex360/Em465; hits give low values. P06935. hit rate 0.18% among 65,000;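 active = z-score at -3 or under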;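 also: score is relative to mean and spread of the compound wells of a plate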
Target sequence (P06935 1371-1501 limits assumed): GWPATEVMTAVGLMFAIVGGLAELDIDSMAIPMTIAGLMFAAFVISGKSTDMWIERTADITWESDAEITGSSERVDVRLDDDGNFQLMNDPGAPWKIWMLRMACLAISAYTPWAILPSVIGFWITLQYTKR
Target sequence (P06935 1502-1679 limits assumed): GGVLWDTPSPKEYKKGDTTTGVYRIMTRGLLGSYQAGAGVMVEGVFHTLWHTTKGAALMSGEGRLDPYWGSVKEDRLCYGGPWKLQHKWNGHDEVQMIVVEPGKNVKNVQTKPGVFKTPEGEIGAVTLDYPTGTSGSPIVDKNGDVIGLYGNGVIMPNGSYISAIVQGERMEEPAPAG
MT1-MMP reporter: inhibitors of MT1-MMP promoter transcription, cell-based, luciferase reporter, luminescence (AID 618); MT1-MMP promoter luciferase reporter cells, luminescence; calls from a first round at 10 µM; hits with a dose series show EC50 in µM; hit rate 0.62% among 87,000;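 active = over half of the reporter light lost at 10 µM or EC50 under 50 µM; inactive = the rest and hits that failed the dose series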;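 also: actives suppress MT1-MMP promoter-driven transcription so potencies describe inhibitors; HT1080 fibrosarcoma cells; overnight exposure; toxic or luciferase-blocking compounds were not removed from the actives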
* = called active by the depositor; i = inactive; . = not tested or not shown; + = active, no number. Compounds were not picked by outcome, and some 0.8% of all compounds hit somewhere here.

SMILES | Hsc70 ATP site | WNV protease inh | MT1-MMP reporter
O=C(c1ccc(-c2ccccc2)cc1)N1CCCC1 | -9.4% | -0.88 | i
CC1(C)CC(=O)C(C=Nc2ccncc2)=C(O)C1 | 1.4% | -0.55 | i
Cc1ccccc1NC(=S)C1=C(O)c2sccc2N(C)S1(=O)=O | 6.5% | . | i
CC(C)C(C)(C#N)NC(=O)CSc1nnc(-c2ccncc2)n1Cc1ccccc1 (stereo not given) | 8.0% | 1.2 | i
COCCNCC#CCOc1ccc(OC)cc1 | 2.6% | 1.6 | i
COc1ccc(CC(=O)Nc2ccc(-c3noc(COc4ccccc4C)n3)cc2)cc1 | -12% | -1.1 | i
COc1ccccc1OCCNC(=O)c1ccccc1C | 5.9% | 1.9 | i
COCCCN1C(=O)C(=O)/C(=C(/O)c2ccc3c(c2)CC(C)O3)C1c1cccnc1 (stereo not given) | -1.2% | 0.47 | i
COCCNc1nc2c(c(=O)n(Cc3ccc(OC)cc3)c(=O)n2C)n1C | -2.5% | 0.7 | i
O=C(CN1CCN(c2ccccc2)CC1)Nc1ccc(OCc2ccccc2)cc1 | 3.6% | . | i
COc1ccc(OC)c(NC(=O)CCCN2C(=O)C3C4C=CC(C4)C3C2=O)c1 (stereo not given) | 3.2% | -0.45 | i
CC(C)[C@H](NC(=O)Nc1ccc(Oc2ccccc2)cc1)C(=O)O | 4.9% | 0.54 | i
CNCCOc1ccccc1C(C)(C)C | -0.7% | . | i
CCc1cccc(NC(=O)c2ccc(Br)o2)c1 | 1.1% | 0.99 | i
Cc1ccc(NC(=O)c2cc(NC(=O)c3ccco3)ccc2N2CCOCC2)cc1Cl | 5.0% | . | i
Nc1nc(SCc2ccc(Cl)cc2Cl)n[nH]1 | -1.5% | 0.01 | i
COC(=O)c1sc(NC(=O)C(C)C)c(C(=O)OC)c1C | -4.1% | -0.71 | i
CC(=O)c1c(C)[nH]c(C(=O)N2CCN(c3ncccn3)CC2)c1C | 2.3% | -0.75 | i
CCCN(CCC)c1nc2ccccc2n2c(C)nnc12 | 2.3% | -0.006 | i
O=C(Oc1cccc(C(=O)N2CCOCC2)c1)c1ccc(Br)cc1 | 3.5% | -0.47 | i
O=C(O)C1C2C=CC(C2)C1C(=O)NCCC1=CCCCC1 (stereo not given) | 2.4% | -0.32 | i
NS(=O)(=O)c1ccc(CCNC(=O)C2CCCCN2S(=O)(=O)c2ccccc2)cc1 (stereo not given) | 6.9% | 0.46 | i
COc1ccccc1N1CC(C(=O)Nc2cccc(C(=O)O)c2)CC1=O (stereo not given) | 7.0% | -0.29 | i
Cc1ccc(NC(=O)CCC(=O)NCCO)cc1 | -1.2% | . | i
CCCCOc1ccc(-c2ncc(C(=O)OCC)c(N)n2)cc1 | 4.0% | -0.06 | i
Following part
SMILES | Hsc70 ATP site | WNV protease inh | MT1-MMP reporter
COc1cccc(C2CC(c3c(-c4ccccc4)c4cc(Cl)ccc4[nH]c3=O)=NN2S(C)(=O)=O)c1OC (stereo not given) | -76% | . | i
Cc1c(NC(=O)C(C)NCC2CCCO2)c(=O)n(-c2ccccc2)n1C (stereo not given) | 0.8% | . | i
Cc1c2cnn(-c3ccccc3)c(=O)c2c(C)n1CCCC(=O)N1CCN(c2ncccn2)CC1 | 4.1% | 0.77 | i
COc1ccccc1-c1nnc2sc(COc3ccc(Cl)cc3)nn12 | -6.8% | -0.52 | i
O=C(NCCCc1ccccc1)c1ccncc1 | -1.9% | -0.84 | i
CCc1c(C)[nH]c(=S)c(C#N)c1C | 3.6% | -1.1 | i
Cc1csc(Sc2nc3c(c(=O)[nH]c(=O)n3C)n2Cc2ccccc2Cl)n1 | 6.0% | 0.93 | i
CN(C)S(=O)(=O)N(CC(=O)Nc1ccccc1F)c1ccccc1 | -1.5% | 0.63 | i
O=C(CCSc1nc(-c2ccco2)cc(C(F)(F)F)n1)N1CCN(c2ccccc2)CC1 | 3.4% | -0.18 | i
CCOC(=O)c1cc(NC(=O)SCC(=O)O)c(C)nc1C | 3.0% | 1.1 | i
CN(C(=O)COc1ccccc1)c1nnc(-c2cccnc2)s1 | 7.9% | -0.21 | i
Cc1ccc(N(CC(=O)NC2CC3CCC2C3)S(C)(=O)=O)cc1C (stereo not given) | -3.4% | -0.72 | i
CC[C@H](C)[C@H](NC(=O)c1ccc(Cl)cc1)C(=O)OCC(=O)c1ccc2c(c1)NC(=O)CO2 | -0.4% | . | i
CC(=O)Nc1ccc(S(=O)(=O)NCCC(=O)NCCc2ccc(F)cc2)cc1 | 0.6% | . | i
CCCCOc1ccc(C(=O)Nc2ccc(N3CCN(C)CC3)cc2)cc1 | 0.8% | -1.2 | i
CCCc1ccc(C(=O)N2CCN(c3ccccc3OCC)CC2)cc1 | -0.4% | 2.3 | i
O=C(/C=C/c1ccccc1)NC(=S)NNC(=O)Cc1cccs1 | 3.2% | . | i
Cc1noc(C)c1C(=O)OCC(=O)NC(c1ccccc1)c1ccccc1 | 3.5% | . | i
CCc1ccc2[nH]c3nc(SCc4nnc(-c5ccc(C)cc5)o4)nnc3c2c1 | 1.3% | . | i
Cc1cc(C(=O)N2CCN(C/C=C/c3ccccc3)CC2)cs1 | 3.1% | 0.79 | i
Cc1ccc(-c2nn3c(C)nnc3s2)cc1NC(=O)c1ccc(-c2cccc(Cl)c2)o1 | -30% | -0.83 | i
Cc1nc2nc(NCc3cccs3)nn2c(C)c1Cl | -1.3% | . | i
O=P1(O)C=C(c2ccccc2)OC(c2ccccc2)=C1 | 2.4% | -0.68 | i
O=C(c1ccc(Cl)c(S(=O)(=O)NCc2ccccc2)c1)N1CCN(c2ccccn2)CC1 | 4.4% | . | i
CN(C(=O)CSc1nc2c(c(=O)[nH]1)CCCC2)C1CCCCC1 | -5.3% | 0.24 | i
The results go on:
SMILES | Hsc70 ATP site | WNV protease inh | MT1-MMP reporter
COc1ccc(CCn2c(=O)[nH]c3cc(C(=O)NCCCN4CCOCC4)ccc3c2=O)cc1OC | 0.3% | -0.0062 | i
O=C(N=C1SCC(=O)N1c1ccccc1Cl)c1ccco1 | -3.9% | -0.21 | i
O=C(Nc1ccc2c(c1)OCO2)Nc1ccc(Cl)cc1Cl | -1.6% | . | i
CCOc1ccccc1-n1c(SCC(N)=O)nnc1-c1ccc(O)cc1 | -5.6% | 1.3 | i
O=C(CN1CCCCC1)Nc1cccc(-n2cnnn2)c1 | 0.0% | -1.1 | i
COc1cccc(-c2cc3nc(-c4ccccc4)cc(N4CCC5(CC4)OCCO5)n3n2)c1 | -5.1% | -0.28 | i
COCCOC(=O)C1=C(C)NC2=C(C(=O)CCC2)C1c1ccc(N(C)C)cc1 (stereo not given) | -3.4% | -1.3 | i
OCC#Cc1cnc2ccccc2c1 | -4.2% | -1.4 | i
Fc1ccccc1COc1cccc(/C=N/n2cnnc2)c1 | -3.6% | -0.84 | i
CC(=O)N(c1cccc(Br)c1)C1C=CS(=O)(=O)C1 (stereo not given) | 2.4% | 0.61 | i
CSc1nncc(=O)[nH]1 | -8.4% | -0.89 | i
C=CCn1c(C)cc(C(=O)COc2nncc3ccccc23)c1C | -3.1% | 0.37 | i
CC(C)(C)N1C(=O)c2ccccc2NC(=O)N1Cc1ccc(Br)cc1 | -2.5% | . | i
COc1ccc(-n2ncc3c(NCCN4CCOCC4)ncnc32)cc1 | 3.6% | . | i
Cc1ccc(C(=O)COC(=O)c2ccc(Br)o2)cc1C | 3.3% | 1.8 | i
COc1cc(/C=N/NC(=O)/C(=C\c2ccc([N+](=O)[O-])cc2)NC(=O)c2ccccc2)cc(OC)c1O | -0.7% | . | i
COc1ccc(-c2noc(-c3ccco3)n2)cc1OC | -3.3% | 1 | i
O=C(Cc1cccs1)Nc1nnc(COc2ccccc2)s1 | -5.4% | . | i
NC(=O)c1ccccc1N/C=C/C(=O)c1ccccc1 | -4.1% | -0.81 | +
CCOC(=O)c1ccccc1NC(=O)c1cccs1 | 9.9% | -0.89 | i
Cc1csc(NC(=O)CSc2nnc(-c3ccccn3)n2-c2ccc(C)c(C)c2)n1 | -0.7% | 1.5 | i
Cc1ccc2c(c1)c1c3n2CCN(C(=O)Cn2c(-c4ccccc4)noc2=O)C3CCC1 (stereo not given) | 1.3% | 0.47 | i
ON1C2CCCCC2N(O)C1c1c(F)c(F)c(F)c(F)c1F (stereo not given) | 5.4% | 0.01 | i
CC(C)c1ccc(S(=O)(=O)N2CCN(C(=O)c3cccc(F)c3)CC2)cc1 | -2.7% | 0.08 | i
c1ccc(CSc2ncnc3c2cnn3Cc2ccccc2)cc1 | 4.6% | . | i

The last five records of the part before are carried over, then new ones follow.
SMILES | Hsc70 ATP site | WNV protease inh | MT1-MMP reporter
Cc1csc(NC(=O)CSc2nnc(-c3ccccn3)n2-c2ccc(C)c(C)c2)n1 | -0.7% | 1.5 | i
Cc1ccc2c(c1)c1c3n2CCN(C(=O)Cn2c(-c4ccccc4)noc2=O)C3CCC1 (stereo not given) | 1.3% | 0.47 | i
ON1C2CCCCC2N(O)C1c1c(F)c(F)c(F)c(F)c1F (stereo not given) | 5.4% | 0.01 | i
CC(C)c1ccc(S(=O)(=O)N2CCN(C(=O)c3cccc(F)c3)CC2)cc1 | -2.7% | 0.08 | i
c1ccc(CSc2ncnc3c2cnn3Cc2ccccc2)cc1 | 4.6% | . | i
Cc1ccc(NC(=O)CCn2cccc2)cc1Cl | 0.2% | -1 | i
COc1ccc(S(=O)(=O)NCc2ccc3c(c2)OCO3)cc1C(=O)O | 0.4% | -1.1 | i
CCc1ccccc1N=C1SCC(=O)N1C | -4.4% | 0.65 | i
Nc1nc(C2CCCCC2)cs1 | 4.3% | . | i
COC(=O)c1cc2sc(Cl)cc2n1CC(=O)N1CCCc2ccccc21 | 1.9% | -1.4 | i
CC(C)c1ccc(NC(=O)c2cnn(-c3ccccc3)c2NC(=O)c2ccco2)cc1 | -4.2% | -0.5 | i
Cc1cc2c(c(=O)n1Cc1ccco1)C(c1ccccc1)C(C#N)=C(N)O2 (stereo not given) | 2.2% | . | i
CCCN1C(=O)c2ccc(C(=O)Nc3cc(C)on3)cc2C1=O | -6.1% | -0.11 | i
COc1ccccc1CNC(=O)C[n+]1ccccc1 | -0.2% | . | i
CCN(CCNC(=O)C1CCN(S(C)(=O)=O)CC1)c1ccccc1 | -8.2% | 0.45 | i
CCCn1c(C)nc2c(c1=O)c1nc3ccccc3nc1n2CCc1ccccc1 | -2.7% | 0.93 | i
CCCCn1c(SC(C)C(N)=O)nc2cc(C(=O)OC)ccc2c1=O (stereo not given) | 1.7% | . | i
O=C1C2C3C=CC(C3)C2C(=O)N1CCN1CCN(S(=O)(=O)c2ccc3ccccc3c2)CC1 (stereo not given) | -0.6% | -0.43 | i
CSc1[nH]c(=O)c(C(=O)O)cc1C#N | 4.9% | 0.22 | i
CCc1ccc2nc(NC3=NCN(CCOC)CN3)nc(C)c2c1 | 0.7% | -0.67 | i
CC1(C)OC(=O)C(=CNc2cccc(C(=O)O)c2)C(=O)O1 | 0.9% | -0.34 | i
COc1cccc(NC=C2C(=O)OC(C)(C)OC2=O)c1 | -0.7% | -0.63 | i
O=C(CSc1ncn[nH]1)Nc1cccc2ccccc12 | 0.7% | -0.05 | i
C=CCn1c(SCC(=O)Nc2ccccc2OC)nnc1-c1ccccn1 | -1.5% | 1.6 | i
CC(C)CN1C(=O)c2ccc(NC(=O)c3ccccc3F)cc2C1=O | 5.1% | . | i
c1ccc(OCCCc2nc(-c3ccncc3)no2)cc1 | 5.8% | -0.78 | i
CCn1c(-c2cc(Br)ccc2O)n[nH]c1=S | 1.4% | -0.25 | i
O=C(CSc1nnc(Cc2ccccc2)o1)NC1CC2CCC1C2 (stereo not given) | 4.1% | 0.07 | i
CN1CCN(c2ccc(Cl)cc2NC(=O)c2ccc(S(=O)(=O)N3CCCCCC3)cc2)CC1 | 2.8% | -1 | i
O=C(Cn1nnc(-c2ccccc2NC(=O)c2ccco2)n1)NC1CCCCC1 | -3.0% | -0.71 | i

Not a retest: 2 of the compounds above.
SMILES | Hsc70 ATP site | WNV protease inh | MT1-MMP reporter
Cc1ccc(NC(=O)CCn2cccc2)cc1Cl | 0.2% | -1 | i
COc1ccc(S(=O)(=O)NCc2ccc3c(c2)OCO3)cc1C(=O)O | 0.4% | -1.1 | i

A draw from above in order of count of non-hydrogen atoms, smallest number first.
SMILES | Hsc70 ATP site | WNV protease inh | MT1-MMP reporter
O=C(CSc1ncn[nH]1)Nc1cccc2ccccc12 | 0.7% | -0.05 | i
CCCN1C(=O)c2ccc(C(=O)Nc3cc(C)on3)cc2C1=O | -6.1% | -0.11 | i
C=CCn1c(SCC(=O)Nc2ccccc2OC)nnc1-c1ccccn1 | -1.5% | 1.6 | i

Later entries.
SMILES | Hsc70 ATP site | WNV protease inh | MT1-MMP reporter
O=C(Oc1ccccc1)c1cccc(N2C(=O)CCC2=O)c1 | 0.0% | -0.57 | i
COc1ccc(C(=O)NCC23C=CC(O2)C2C(=O)N(Cc4ccccc4)C(=O)C23)cc1 (stereo not given) | 6.4% | 1 | i
O=C(NCCCN1CCOCC1)c1cc2c(s1)CSC2 | -3.7% | 1.3 | i
COc1ccc2c(CSc3nc4nc(C)cc(C)n4n3)cc(=O)oc2c1 | 1.9% | -0.81 | i
CC1CCCC(NC(=O)C2CCN(S(=O)(=O)N3CCOCC3)CC2)C1C (stereo not given) | 3.5% | -0.37 | i
CCn1c(SCC(=O)C(C)(C)C)nnc1-c1cnccn1 | -5.2% | 0.73 | i
CCOC(=O)NC1(C(F)(F)F)NC(=O)N(Cc2ccco2)C1=O (stereo not given) | -2.7% | 1.4 | i

Screening results (PubChem)
